TRPV1 PAM – potentiators of human vanilloid receptor 1 (TRPV1) | Q8NER1 | TRPV1-expressing cells, Fluo-8 calcium influx, capsaicin EC20 potentiation; host cell line not named in the record; control for the full effect not named in the record | potentiation, % at 8.33 µM | actives 0.02% (n = 320,000); active means potentiation above 80%; inconclusive means 30% to 80%; inactive means below 30%; also: 0% is about no effect
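Cells expressing TRPV1 were dye-loaded with Fluo-8 and read kinetically: 10 s baseline, 3 min after compound (agonist portion), then 2 min after EC20 capsaicin (allosteric enhancer portion). Calcium-bound dye fluorescence at 480/520 nm.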
Six1-Eya2 blk – inhibitors of human Six1/Eya2 interaction | Q15475+O00167 | AID 651725 | actives 0.56% (n = 360,000) | AlphaScreen GST-Six1/His-Eya2 binding, biochemical; active compounds read low; control for the full effect not named in the record | activity change, % (concentration not given with the values); in the data active = activity change below about -65%; inconclusive = about -30% to -65%; inactive = above about -30%; also: % is scaled to controls: 0 for no effect and ±100 for the full control effect
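GST-Six1 + His-Eya2 (5X stock: 250/500 nM); Tris pH 8.0, 300 mM NaCl, 0.05% BSA, 0.02% Tween 20; GSH donor/Ni acceptor beads; 1 h 37 °C dark; AlphaScreen readout.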
TRPML1 inh – blocks the human TRPML1 channel. Q9GZU1. activity change, negative = inhibition, % (concentration not given with the values). actives 0.02% (n = 390,000). AID 624415. TRPML1-inducible cells, Ca2+ dye fluorescence, FDSS; active compounds read low; inhibition of EC80 agonist-evoked calcium signal; in the data active means activity change below about -50%; inconclusive means about -30% to -50%; inactive means above about -30%;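 also: stimulus is agonist 54-4 at its EC80 concentration; % is scaled to controls: 0 for no effect and ±100 for the full control effect; the text of the record puts the active cut at -80%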
Target sequence (Q9GZU1 whole entry, looked up): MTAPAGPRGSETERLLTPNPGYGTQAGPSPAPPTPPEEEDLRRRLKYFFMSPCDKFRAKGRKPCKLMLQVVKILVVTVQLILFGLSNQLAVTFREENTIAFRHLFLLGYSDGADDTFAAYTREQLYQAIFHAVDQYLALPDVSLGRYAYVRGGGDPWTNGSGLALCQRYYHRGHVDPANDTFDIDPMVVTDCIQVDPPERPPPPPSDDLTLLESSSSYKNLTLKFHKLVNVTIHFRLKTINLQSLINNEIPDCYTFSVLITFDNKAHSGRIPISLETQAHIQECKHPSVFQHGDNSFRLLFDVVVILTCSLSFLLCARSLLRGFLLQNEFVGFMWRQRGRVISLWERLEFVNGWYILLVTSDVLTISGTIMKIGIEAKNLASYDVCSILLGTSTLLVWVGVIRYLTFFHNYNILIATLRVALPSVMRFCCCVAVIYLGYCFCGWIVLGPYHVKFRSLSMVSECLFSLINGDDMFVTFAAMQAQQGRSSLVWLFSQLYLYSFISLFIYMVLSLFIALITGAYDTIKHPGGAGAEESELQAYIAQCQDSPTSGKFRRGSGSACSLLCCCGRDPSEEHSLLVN
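TRPML1-DL cells, Tet-induced overnight (~16 h, 37 °C) at 1,500 cells/well, were loaded with Ca8 no-wash dye plus quencher for 45-90 min at room temperature. Compounds were pinned during FDSS kinetic reading; agonist 54-4 at EC80 (4 uM final) then added.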
CtBP-E1A blk – inhibitors of CtBP/E1A interaction; actives 0.49% (n = 340,000); AlphaScreen GST-E1A/His-CtBP binding, 1536-well; active compounds read low; control for the full effect not named in the record; activity change, % (concentration not given with the values); in the data active means activity change below about -65%; inconclusive means about -30% to -65%; inactive means above about -30%; also: % is scaled to controls: 0 for no effect and ±100 for the full control effect
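In 5 uL wells, 23 nL compound meets equimolar GST-E1A and His-CtBP (5X stock 125 nM each) for 2 h, 37 °C. Beads (5X, 50 ug/mL) then 1 h, 37 °C, dark.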
TRPML1 ag – human mucolipin-1 channel agonism. Q9GZU1. TRPML1-expressing cells, Ca2+ dye fluorescence, FDSS; host cell line not named in the record; reference of the full effect not given here. activation, % (test concentration not listed). actives 0.12% (n = 410,000); in the data active = activation above about 50%; inconclusive = about 30% to 50%; inactive = below about 30%; also: 0% is about no effect; the text of the record puts the active cut at 80%
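Tetracycline-induced TRPML1-DL cells are seeded and incubated overnight before loading with a no-wash Ca2+ dye and quencher. Agonist activity is taken from the 110 s fluorescence read following compound pin-transfer on an FDSS, before EC80 54-4 challenge.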
D2 potentiator – potentiates the human D2 dopamine receptor allosterically | P14416 | DiscoveRx D2 beta-arrestin cells, luminescence, 90 min; 100% = 57 uM dopamine signal | potentiation, % (no concentration beside the values) | AID 624464 | actives 0.23% (n = 360,000); active = potentiation of 50% or more; inconclusive = 30% to 50%; inactive = 30% or less;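 also: compound concentration not given in the record; tested on top of an EC20 dose of dopamine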
Target sequence (P14416 whole entry, looked up): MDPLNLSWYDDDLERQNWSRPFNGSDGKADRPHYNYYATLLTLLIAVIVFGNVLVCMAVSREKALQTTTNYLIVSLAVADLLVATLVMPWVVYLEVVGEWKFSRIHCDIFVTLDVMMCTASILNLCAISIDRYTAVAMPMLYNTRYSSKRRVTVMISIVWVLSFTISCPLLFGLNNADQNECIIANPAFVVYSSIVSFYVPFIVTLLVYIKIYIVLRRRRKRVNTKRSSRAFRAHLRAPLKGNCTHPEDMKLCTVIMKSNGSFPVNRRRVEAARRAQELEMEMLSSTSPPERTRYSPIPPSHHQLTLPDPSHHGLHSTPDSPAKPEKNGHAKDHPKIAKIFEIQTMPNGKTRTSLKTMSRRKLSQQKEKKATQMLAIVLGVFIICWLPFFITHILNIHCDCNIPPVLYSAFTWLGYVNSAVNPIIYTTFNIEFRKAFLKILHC
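PathHunter D2 cells, attached overnight at 37 deg C, received compound in DMSO plus dopamine at EC20 (50 nM final) for 90 min at 37 deg C. Beta-arrestin recruitment was read as luminescence after 1 h with detection reagent at ambient temperature.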
* hit, by the source's call; nt = no result given; & = joins results of further samples.

Sample of the layout (four entries):
SMILES | TRPV1 PAM | Six1-Eya2 blk | TRPML1 inh | CtBP-E1A blk | TRPML1 ag | D2 potentiator
Cn1c(C(=O)NCc2ccccc2)cc2oc3ccccc3c21 | 22 | -9 | -3 | -17 | 4.9 | -4
O=C1N/C(=N\S(=O)(=O)Cc2ccccc2)S/C1=C/c1cccc([N+](=O)[O-])c1 | 6 | -6 | -7 | 9 | 0.1 | -7
CCC(=O)N(Cc1cc2cc(OC)ccc2[nH]c1=O)c1ccccc1C | 1 | 2 | -17 | 6 | 1.5 | -14
O=[N+]([O-])c1ccc(O)c(/C=N/n2c(-c3ccccc3)n[nH]c2=S)c1 | 3 | -1 | -5 | -3 | -0.3 | -23

The listing, from the start:
SMILES | TRPV1 PAM | Six1-Eya2 blk | TRPML1 inh | CtBP-E1A blk | TRPML1 ag | D2 potentiator
Cn1c(C(=O)NCc2ccccc2)cc2oc3ccccc3c21 | 22 | -9 | -3 | -17 | 4.9 | -4
O=C1N/C(=N\S(=O)(=O)Cc2ccccc2)S/C1=C/c1cccc([N+](=O)[O-])c1 | 6 | -6 | -7 | 9 | 0.1 | -7
CCC(=O)N(Cc1cc2cc(OC)ccc2[nH]c1=O)c1ccccc1C | 1 | 2 | -17 | 6 | 1.5 | -14
O=[N+]([O-])c1ccc(O)c(/C=N/n2c(-c3ccccc3)n[nH]c2=S)c1 | 3 | -1 | -5 | -3 | -0.3 | -23
CCNC(=O)Nc1cc(S(=O)(=O)Nc2ccc(OC)cc2)ccc1N1CCOCC1 | 3 | -1 | 0 | 6 | -0.6 | 3
Cc1ccc(/C=C/C(=O)c2ccccc(=O)c2O)cc1C | 25 | -16 | 12 | -1 | -0.2 | -13
N#CCC(=O)N/N=C/c1cn(Cc2ccc3ccccc3c2)c2ccccc12 | nt | 3 | 19 | -5 | -0.2 | -2
CCN(CC)C(=O)C1CCCN(c2ncnc3c2cnn3-c2ccc(Cl)cc2)C1 (stereo not drawn) | 3 | 0 | 13 | -13 | -0.7 | -3
CC1CCN(c2c([N+](=O)[O-])c(=O)n(-c3ccccc3)c3ccccc23)CC1 | -2 | -1 | 5 | 0 | 2.4 | -12
COc1ccccc1-c1cnc(C(O)c2ccc(Cl)cc2C)[nH]1 (stereo not drawn) | nt | -4 | nt | -11 | -0.8 | -12
CC(=O)c1cccc(-n2c(CCC(=O)O)ccc2-c2ccccc2)c1 | -32 | -3 | 9&-3 | 0 | 2.4&0.0 | -2
Cc1ccc(C(=O)NCC(=O)OC(C)C(=O)Nc2ccc(N(C)C)cc2)cc1C (stereo not drawn) | -9 | -19 | 14 | -15 | 2.6 | -9
CCn1c2ccccc2c2cc(NC(=O)COC(=O)c3cc(OC)c(OC)cc3OC)ccc21 | 11 | -19 | 6 | -22 | -0.7 | -7
CCC(=O)N/C=C/n1cnc2cc(C(F)(F)F)ccc21 | -5 | -10 | 36 | -5 | -0.5 | -6
COc1ccc(Nc2nnc(-c3ccc(C)cc3)c3ccccc23)cc1C(=O)N1CCCCC1 | 15 | -2 | 9 | -7 | 0.3 | -7
CN1CCN(C(=O)c2ccc3c(Cl)c4c(nc3c2)CCCC4)CC1 | 23 | -2 | 0 | 3 | -0.6 | -10
O=C(Nc1ccn(Cc2ccccc2)n1)c1cccc(Cn2cc([N+](=O)[O-])cn2)c1 | 0 | 3 | 50 | 5 | 2.2 | 7
CCc1nnc(NC(=O)c2cc(S(=O)(=O)N3CCN(CC)CC3)ccc2Cl)s1 | nt | -1 | -8 | 6 | 1.5 | -2
CN1CCN(S(=O)(=O)c2cccc(C(=O)N3CCc4ccccc43)c2)CC1 | 2 | 16 | 14 | 0 | 0.3 | 2
O=S(=O)(NC1CCCCC1NCc1ccco1)c1ccc(Cl)cc1 (stereo not drawn) | -8 | 0 | 27 | 1 | 0.3 | -22
Cc1cc(C)c(S(=O)(=O)N2CCCC(C(=O)NCCC3=CCCCC3)C2)c(C)c1 (stereo not drawn) | -5 | 4 | 59 | -1 | 2.9 | -2
CNC(=O)c1ccc(NC(=O)C2CCN(c3ncnc4sc(C)c(C)c34)CC2)cc1 | -2 | -21 | 0 | 1 | 0.3 | 15
O=c1c2cnn(-c3ccccc3)c2ncn1Cc1ccco1 | -15 | 0 | -7 | 3 | -0.1 | -24
O=C(c1ccc2c(c1)OCO2)N(c1ccccc1)C1C=CS(=O)(=O)C1 (stereo not drawn) | 2 | 2 | -11 | -1 | -0.8 | -1
S=c1[nH]nc(CCc2nc3ccccc3[nH]2)n1-c1cccc(Cl)c1 | 3 | 11 | 6 | -11 | 2.4 | -21
(cont.)
SMILES | TRPV1 PAM | Six1-Eya2 blk | TRPML1 inh | CtBP-E1A blk | TRPML1 ag | D2 potentiator
CN(C)CCN1C(=O)C(O)=C(C(=O)c2cc3ccccc3o2)C1c1ccc(N(C)C)cc1 (stereo not drawn) | -8 | 1 | 11 | -1 | 12 | -14
NCCCCCc1nnc(SCC(=O)c2ccc(Cl)cc2)o1 | 20 | 5 | -17 | -2 | 0.5 | -8
Cc1ccc(C(C(=O)NC2CCCCC2)N(C(=O)c2csnn2)C2CC2)o1 (stereo not drawn) | -25 | 6 | 3 | 0 | 4.1 | -9
COc1ccc(-n2c(-c3ccco3)nc3c(cnn3-c3ccccc3C)c2=O)cc1 | -9 | -9 | 12&31 | 0 | 1.0&-0.5 | -3
CC(=O)C1=C(O)C(=O)N(c2ccc(C(=O)O)cc2)C1c1ccc([N+](=O)[O-])cc1 (stereo not drawn) | -5 | 1 | 4 | 4 | 0.0 | 0
Cc1ccc(C2(C)NC(=O)N(CC(=O)Nc3ccc4[nH]c(=O)[nH]c4c3)C2=O)cc1 (stereo not drawn) | 20 | -17 | 6 | -14 | 0.3 | -5
C=CCn1c(C(CCCC)CC(O)COCCC)n[nH]c1=S (stereo not drawn) | 2 | 0 | -17 | 9 | 0.6 | -1
Cc1cc(CN(C)C(=O)c2ccc3nc(Cc4ccccc4F)oc3c2)on1 | -2 | -10 | -1 | -8 | 0.6 | -17
O=C(COc1ccc(-c2nnco2)cc1)Nc1ccc(F)c(Cl)c1 | nt | 9 | -1 | -3 | -1.0 | -9
Cc1[nH]n(-c2ccc(C(=O)O)cc2)c(=O)c1CCO | -18 | -15 | 27 | -2 | 0.1 | 9
Cc1oc(-c2ccccc2Cl)nc1CSCC(=O)NC1CCCC1 | -6 | -1 | -9 | 0 | -0.6 | 13
O=C(N/N=C/c1ccc(Br)o1)c1ccc2c(c1)OCCO2 | -22 | -27 | 6 | -11 | -0.3 | -28
CC(=O)Nc1ccc(S(=O)(=O)N2CCC(C(=O)NCCc3c[nH]c4ccccc34)CC2)cc1 | 9 | 2 | nt | 6 | nt | -1
CC(C)c1ccc(CCNC(=O)c2ccc([N+](=O)[O-])cc2)cc1 | -16 | -10 | 0 | 2 | 1.1 | -4
COc1cc(CNCCc2ccccc2)cc(Cl)c1OCc1ccccc1 | -1 | 30 | 16 | 22 | 2.4 | -9
CC(OC(=O)c1ccco1)C(=O)NCc1cccs1 (stereo not drawn) | -10 | 7 | 4 | -20 | 0.7 | 13
Cn1cc(C(=O)NCc2cccs2)c(=O)c2cc(S(=O)(=O)N3CCCC3)ccc21 | 8 | -1 | 6 | 1 | 1.3 | -17
Cc1cc(F)ccc1S(=O)(=O)N1CCCCC1CCNC(=O)C(=O)NCc1ccccn1 (stereo not drawn) | -2 | -21 | 5 | -1 | -0.6 | -4
CCOc1ccc(C2CC(c3cccc(C)c3)n3nc(N)nc3N2)cc1 (stereo not drawn) | -5 | -2 | -16 | 6 | -0.1 | -2
O=C(c1cc(-c2ccccc2Cl)nc2ccccc12)N1CCN(c2ccccc2O)CC1 | -12 | -23 | 2 | -4 | 0.0 | 27
COc1ccc(C(=O)Nc2ccc(C(=O)Nc3cccc(C)c3)cc2)cc1 | 3 | 4 | 19 | -2 | -0.3 | 19
Cn1c(CNc2ccc(F)cc2)nnc1SCC(=O)NNC(=O)Cc1ccccc1 | 7 | 1 | -1 | 2 | -1.0 | 0
Cc1c(C=O)c2ccccn2c1C(=O)c1ccccc1Cl | -12 | -22 | -5 | -13 | 1.1 | -3
COCCNC(=O)c1c[nH]c2ccc(S(=O)(=O)N3CCOCC3)cc2c1=O | 12 | -5 | -3 | -10 | -0.3 | -4
CC(C)COP(=O)(OCC(C)C)C(O)c1ccccc1F (stereo not drawn) | -9 | 15 | 6 | -1 | 0.4 | -2

Sorted by value in D2 potentiator (largest number first): 3 of the compounds above.
SMILES,D2 potentiator
CCOc1ccc(C2CC(c3cccc(C)c3)n3nc(N)nc3N2)cc1 (stereo not drawn),-2
Cc1cc(F)ccc1S(=O)(=O)N1CCCCC1CCNC(=O)C(=O)NCc1ccccn1 (stereo not drawn),-4
COc1ccc(Nc2nnc(-c3ccc(C)cc3)c3ccccc23)cc1C(=O)N1CCCCC1,-7

One compound at a time, as listed above. Order of screens: TRPV1 PAM | Six1-Eya2 blk | TRPML1 inh | CtBP-E1A blk | TRPML1 ag | D2 potentiator
CC(=O)c1cccc(-n2c(CCC(=O)O)ccc2-c2ccccc2)c1 as listed: -32 | -3 | 9&-3 | 0 | 2.4&0.0 | -2
Cc1ccc(/C=C/C(=O)c2ccccc(=O)c2O)cc1C as listed: 25 | -16 | 12 | -1 | -0.2 | -13
COc1ccccc1-c1cnc(C(O)c2ccc(Cl)cc2C)[nH]1 (stereo not drawn) as listed: nt | -4 | nt | -11 | -0.8 | -12
CN1CCN(C(=O)c2ccc3c(Cl)c4c(nc3c2)CCCC4)CC1 as listed: 23 | -2 | 0 | 3 | -0.6 | -10
Cn1c(CNc2ccc(F)cc2)nnc1SCC(=O)NNC(=O)Cc1ccccc1 as listed: 7 | 1 | -1 | 2 | -1.0 | 0

Going on with the list.
SMILES | TRPV1 PAM | Six1-Eya2 blk | TRPML1 inh | CtBP-E1A blk | TRPML1 ag | D2 potentiator
COc1ccc2cc3cc(C(=O)NCC4CCCO4)oc3nc2c1 (stereo not drawn) | 16 | -9 | 10 | -5 | 0.3 | 6
COc1cccc(/C=N/n2c(-c3cccs3)n[nH]c2=S)c1 | nt | -10 | 2 | -10 | -0.8 | 4
CC(C)(C)c1cc(C(=O)NNS(=O)(=O)c2ccccc2)n[nH]1 | 18 | 8 | -4 | nt | -0.1 | -14
CN(C)CCNC(=O)c1ccc2c(c1)N(Cc1ccc(F)cc1)CCS2 | nt | -22 | 7 | -14 | 0.0 | -9
Cc1ccc(-n2nnc3c(=O)n(Cc4cc(C)ccc4C)cnc32)cc1 | 8 | 2 | 11 | -3 | 1.9 | -11
O=C(NNCC(O)COc1ccccc1)c1ccccc1 (stereo not drawn) | 30 | -10 | -13 | 0 | 0.4 | -6
COCCCN1C(=O)C(CC(=O)NCCN2CCOCC2)CC(C(=O)N2CCOCC2)=C1C (stereo not drawn) | nt | -8 | nt | 6 | -0.2 | nt
